# HSV augment: increases HSV replication in cells; HSV replication augmentation in cells, fold increase; maximum fold increase; hit rate 0.005% among 220,000; AID 1956;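 active = peak rise of 1.5-fold or more in the series; tested in PC3 cells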;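 note: first round at 10 µM; read as green reporter fluorescence; hits show the peak of a series up to 25 µM; 1 = signal of infected wells without compound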
# RGS16-Gao: regulators of human RGS16-Galphao interaction | O15492+P09471 | bead-based flow cytometry RGS16-Galphao binding, fluorescence; actives lie on both sides | binding response (% of control), % at 10 µM | hit rate 0.38% among 220,000 | AID 1441;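 active = below 25% or above 175%, edge rows of some plates excepted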;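 note: Galphao activated by GDP with aluminum fluoride before binding; 100% = wells without compound and 0% = beads without RGS; some results beyond the cut were filed as inactive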
# Target sequence (O15492 whole entry, looked up): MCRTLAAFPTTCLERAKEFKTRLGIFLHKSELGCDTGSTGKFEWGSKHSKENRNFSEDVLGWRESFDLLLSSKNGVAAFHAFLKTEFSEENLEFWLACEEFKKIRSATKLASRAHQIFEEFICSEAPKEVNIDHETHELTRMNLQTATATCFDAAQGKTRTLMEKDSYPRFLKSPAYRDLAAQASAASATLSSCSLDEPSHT
# Target sequence (P09471 whole entry, looked up): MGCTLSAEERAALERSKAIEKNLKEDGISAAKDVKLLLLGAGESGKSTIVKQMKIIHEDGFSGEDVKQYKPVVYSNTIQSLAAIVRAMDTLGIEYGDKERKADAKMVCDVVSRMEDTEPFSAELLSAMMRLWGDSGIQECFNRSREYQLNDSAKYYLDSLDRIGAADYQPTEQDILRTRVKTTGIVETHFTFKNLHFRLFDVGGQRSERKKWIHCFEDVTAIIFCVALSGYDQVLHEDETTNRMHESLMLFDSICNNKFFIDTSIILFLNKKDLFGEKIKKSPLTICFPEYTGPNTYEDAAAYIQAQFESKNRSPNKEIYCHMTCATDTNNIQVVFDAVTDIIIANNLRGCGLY
# HSV augment primary fold: further read-out of HSV augment, marked with its call; fold increase; compound at 10 µM; measured here: primary screen fold increase 10 uM; tested in PC3 cells;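 GFP signal in the first replicate; 1 = infected wells without compound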
# Active calls of the source: *; i = inactive; x = no result given. This is a subset. The share of hits here may be higher or lower than overall.
no. | SMILES | HSV augment | HSV augment primary fold | RGS16-Gao
1 | O=c1[nH]c(O)c(/C=C2/C=CC(c3cc(Cl)ccc3Cl)=N2)c(=O)[nH]1 | x | x | 102
2 | CCCCCCNC(=O)N[C@H](Cc1ccc(O)cc1)C(=O)NCCC[C@H]1CN2C(=NC[C@H]2CCC)N1CC1CCC1 | x | x | 74
3 | C[C@]12CCC(=O)C=C1CC[C@@H]1[C@@H]2CC[C@@]2(C)[C@H]1CC[C@]2(C)O | x | x | 99
4 | COC(=O)C1=C(c2cc3ccccc3s2)C[C@@H]2CC[C@H]1N2C(=O)NCCO | i | 1 | x
5 | COC(=O)C1=C(c2cc3ccccc3o2)C[C@@H]2CC[C@H]1N2C(=O)NCc1ccc(C(F)(F)F)cc1 | i | 0.85 | x
6 | COc1ccc(C(CN(C)C)C2(O)CCCCC2)cc1 (configuration not stated) | i | 0.89 | x
7 | ClC1=CCC2CN(CCN3CCCCC3)CC2C1 (configuration not stated) | i | 1 | x
8 | COC(=O)C1=C(c2cccc(OC)c2OC)C[C@@H]2CC[C@H]1N2C(=O)NCCCOC(C)C | i | 0.83 | x
9 | O=c1cccc2n1CC1CC2CN(c2ncnc3c2cnn3-c2ccc(Cl)cc2)C1 (configuration not stated) | i | 1 | x
10 | COC(=O)C1=C(c2ccc(S(C)(=O)=O)cc2)C[C@@H]2CC[C@H]1N2C(=O)N1CCCCC1 | i | 0.77 | x
11 | C/C(=N\NC(=O)c1ccncc1)c1c(O)[nH]c(=O)[nH]c1=O | i | 0.85 | x
12 | COC(=O)C1=C(c2ccc(S(C)(=O)=O)cc2)C[C@@H]2CC[C@H]1N2C(=O)NC(C)C | i | 0.83 | x
13 | COC(=O)C1=C(c2cccc(OC)c2OC)C[C@@H]2CC[C@H]1N2C(=O)NCc1cccc2ccccc12 | i | 0.73 | x
14 | COC(=O)C1=C(c2ccc(S(C)(=O)=O)cc2)C[C@@H]2CC[C@H]1N2C(=O)NCCNC(C)=O | i | 0.81 | x
15 | COc1ccc(CCN)cc1O | i | 0.67 | x
16 | CCN1C[C@]2(COC)CC[C@H](OC)[C@@]34C5C[C@H]6C(=O)C5[C@](O)(C[C@H]6OC)[C@@](O)(C(OC)C23)[C@@H]14 (some centres not stated) | i | 0.6 | x
17 | Cc1ccc(-c2nc3ccc(C)cn3c2CC(=O)N(C)C)cc1 | i | 0.94 | x
18 | COC[C@]12CN(C)C3C4[C@H](OC)[C@H]1C3([C@@H](OC)C[C@H]2O)[C@@H]1C[C@@]2(O)[C@H](OC(=O)c3ccccc3)[C@@H]1[C@]4(OC(C)=O)[C@@H](O)[C@@H]2OC | i | 0.94 | x
19 | CCCN(CCC)C1Cc2cc(OC)c(OC)cc2C1 | i | 0.86 | x
20 | CCCNC(=O)N1[C@H]2CC[C@@H]1C(C(=O)OC)=C(c1ccccc1)C2 | i | 0.97 | x
21 | CC[C@H]1CC2CN3CCc4c([nH]c5ccccc45)C(C(=O)OC)(C2)C13 (some centres not stated) | i | 0.73 | x
22 | COC(=O)C1=C(c2cccc(OC)c2OC)C[C@@H]2CC[C@H]1N2C(=O)NCCNC(C)=O | i | 1.1 | x
23 | CN1CCN(c2ccc3c(c2)S(=O)(=O)c2ccccc2C3=O)CC1 | i | 1.1 | x
24 | COC(=O)C1=C(N)OC(C)=C(C(C)=O)C12C(=O)N(C)c1ccccc12 (configuration not stated) | i | 0.92 | x
25 | S=C(NC1CCCCC1)N1CCC(c2cnc[nH]2)CC1 | i | 1 | x
26 | NCCc1ccccn1 | i | 0.95 | x
27 | CCCN(CCC)C1CCc2cccc(O)c2C1 (configuration not stated) | i | 0.99 | x
28 | C=C1[C@H]2C[C@H]3[C@H]4N5C[C@]6(C)CCC[C@]47[C@H]([C@H]2O)[C@]3(C[C@]5(O)[C@H]67)[C@@H]1O | i | 0.99 | x
29 | Clc1ccc(CO/N=C(\Cn2ccnc2)c2ccc(Cl)cc2Cl)c(Cl)c1 | i | 1.1 | x
30 | COC(=O)C1=C(c2ccc(S(C)(=O)=O)cc2)C[C@@H]2CC[C@H]1N2C(=O)N1CCCC1 | i | 0.91 | x
31 | CNCC(O)c1cc(OCc2ccccc2)c(OCc2ccccc2)cc1F (configuration not stated) | i | 0.67 | x
32 | Oc1cc(Cl)ccc1Oc1ccc(Cl)cc1Cl | i | 0.72 | x
33 | COc1ccc(C(O)CNC(C)C)c(F)c1OC (configuration not stated) | i | 0.71 | x
34 | CC1(C)NC(=O)[C@H]2CCCN21 | i | 1.1 | x
35 | COC(=O)C1=C(c2cccc(OC)c2OC)C[C@@H]2CC[C@H]1N2C(=O)N1CCCC1 | i | 0.86 | x
36 | COC(=O)C1=C(c2ccc(S(C)(=O)=O)cc2)C[C@@H]2CC[C@H]1N2C(=O)NCc1cccc2ccccc12 | i | 0.92 | x
37 | COC(=O)C1=C(c2ccccc2)C[C@@H]2CC[C@H]1N2C(=O)NCCNC(C)=O | i | 1.3 | x
38 | COC(=O)C1=C(c2cc3ccccc3s2)C[C@@H]2CC[C@H]1N2C(=O)NCc1ccc(C(F)(F)F)cc1 | i | 0.77 | x
39 | COc1cc(C(O)CNC(C)C)cc(F)c1OC (configuration not stated) | i | 0.93 | x
40 | COC(=O)C1=C(c2ccccc2)C[C@@H]2CC[C@H]1N2C(=O)NCc1ccc(C(F)(F)F)cc1 | i | 0.93 | x
41 | CCOC(=O)c1ccccc1NC(=O)c1c(O)[nH]c(=S)[nH]c1=O | i | 0.81 | x
42 | CCCNC(=O)N1[C@H]2CC[C@@H]1C(C(=O)OC)=C(c1cc3ccccc3o1)C2 | i | 0.74 | x
43 | CC(=O)N(C)CC#CCN1CCCC(CO)C1 (configuration not stated) | i | 0.95 | x
44 | Cc1cc(OCC(=O)OC(C)(C)C)c2c3c(c(=O)oc2c1)CCC3 | i | 0.91 | x
45 | COC(=O)C1=C(c2ccc(S(C)(=O)=O)cc2)C[C@@H]2CC[C@H]1N2C(=O)N1CCOCC1 | i | 0.81 | x

# Part of the list above in order of SMILES length, low to high.
no. | SMILES | HSV augment | HSV augment primary fold | RGS16-Gao
26 | NCCc1ccccn1 | i | 0.95 | x
34 | CC1(C)NC(=O)[C@H]2CCCN21 | i | 1.1 | x
27 | CCCN(CCC)C1CCc2cccc(O)c2C1 (configuration not stated) | i | 0.99 | x
43 | CC(=O)N(C)CC#CCN1CCCC(CO)C1 (configuration not stated) | i | 0.95 | x
39 | COc1cc(C(O)CNC(C)C)cc(F)c1OC (configuration not stated) | i | 0.93 | x
25 | S=C(NC1CCCCC1)N1CCC(c2cnc[nH]2)CC1 | i | 1 | x
31 | CNCC(O)c1cc(OCc2ccccc2)c(OCc2ccccc2)cc1F (configuration not stated) | i | 0.67 | x
23 | CN1CCN(c2ccc3c(c2)S(=O)(=O)c2ccccc2C3=O)CC1 | i | 1.1 | x
44 | Cc1cc(OCC(=O)OC(C)(C)C)c2c3c(c(=O)oc2c1)CCC3 | i | 0.91 | x
41 | CCOC(=O)c1ccccc1NC(=O)c1c(O)[nH]c(=S)[nH]c1=O | i | 0.81 | x
29 | Clc1ccc(CO/N=C(\Cn2ccnc2)c2ccc(Cl)cc2Cl)c(Cl)c1 | i | 1.1 | x
24 | COC(=O)C1=C(N)OC(C)=C(C(C)=O)C12C(=O)N(C)c1ccccc12 (configuration not stated) | i | 0.92 | x
37 | COC(=O)C1=C(c2ccccc2)C[C@@H]2CC[C@H]1N2C(=O)NCCNC(C)=O | i | 1.3 | x
42 | CCCNC(=O)N1[C@H]2CC[C@@H]1C(C(=O)OC)=C(c1cc3ccccc3o1)C2 | i | 0.74 | x
35 | COC(=O)C1=C(c2cccc(OC)c2OC)C[C@@H]2CC[C@H]1N2C(=O)N1CCCC1 | i | 0.86 | x
22 | COC(=O)C1=C(c2cccc(OC)c2OC)C[C@@H]2CC[C@H]1N2C(=O)NCCNC(C)=O | i | 1.1 | x
30 | COC(=O)C1=C(c2ccc(S(C)(=O)=O)cc2)C[C@@H]2CC[C@H]1N2C(=O)N1CCCC1 | i | 0.91 | x
45 | COC(=O)C1=C(c2ccc(S(C)(=O)=O)cc2)C[C@@H]2CC[C@H]1N2C(=O)N1CCOCC1 | i | 0.81 | x
38 | COC(=O)C1=C(c2cc3ccccc3s2)C[C@@H]2CC[C@H]1N2C(=O)NCc1ccc(C(F)(F)F)cc1 | i | 0.77 | x
36 | COC(=O)C1=C(c2ccc(S(C)(=O)=O)cc2)C[C@@H]2CC[C@H]1N2C(=O)NCc1cccc2ccccc12 | i | 0.92 | x
28 | C=C1[C@H]2C[C@H]3[C@H]4N5C[C@]6(C)CCC[C@]47[C@H]([C@H]2O)[C@]3(C[C@]5(O)[C@H]67)[C@@H]1O | i | 0.99 | x

# Continuation:
no. | SMILES | HSV augment | HSV augment primary fold | RGS16-Gao
46 | CC[C@@H](CO)C1CC2NC3CC4(c5ccccc5N(C)[C@@H]24)C(O)C31 (some centres not stated) | i | 1 | x
47 | C=CCN1CCC2(C)c3cc(O)ccc3CC1C2C (configuration not stated) | i | 0.87 | x
48 | Cc1nnc2ccc(-c3cccc(C(F)(F)F)c3)nn12 | i | 1 | x
49 | COC(=O)C1=C(c2cc3ccccc3s2)C[C@@H]2CC[C@H]1N2C(=O)N1CCCC1 | i | 0.72 | x
50 | CC(C)c1cccc(C(C)C)c1O | i | 0.78 | x
51 | O=C(O)c1cc(Oc2ccc(C(F)(F)F)cc2Cl)ccc1[N+](=O)[O-] | i | 0.83 | x
52 | CCN1C[C@]2(CO)CC[C@H](OC)[C@@]34C5C[C@H]6[C@H](OC)C5[C@](O)(C[C@H]6OC)[C@@H](C(OC)C23)[C@@H]14 (some centres not stated) | i | 0.99 | x
